Assay outcomes (PubChem BioAssay)
StopGo FLuc: lowers the firefly signal of an FMDV 2A StopGo reporter; HEK cells with a luciferase reporter of 2A StopGo recoding; Potency, µM (top dose mostly 57.5 µM), without a hit: top-dose signal change, negative = less light; AID 1745856; actives 0.23% (n = 120,000); active = well fitted falling curve with a large enough effect; inconclusive = small, poorly fitted or top-dose-only effect; inactive = no such curve, though single readings can be large or run the other way; note: nearly all actives have a fitted effect of over 60% in size; overnight with compound
StopGo RLuc: lowers the Renilla signal of an FMDV 2A StopGo reporter; Potency, µM (top dose mostly 57.5 µM), without a hit: at the top dose signal change, negative = less light; actives 0.32% (n = 120,000); HEK cells with a luciferase reporter of 2A StopGo recoding; active means well fitted falling curve with a large enough effect; inconclusive means small, poorly fitted or top-dose-only effect; inactive means no such curve, though single readings can be large or run the other way; note: nearly all actives have a fitted effect of over 55% in size; overnight with compound
* hit, by the source's call; ? = inconclusive; & = joins results of further samples; [ ] = another dose, or the depositor's remark. % is set by controls: 0 for no effect and ±100 for the full control effect; potency is the fitted concentration of half-maximal effect.

Fields – StopGo FLuc	StopGo RLuc
COc1ccc(NC(=O)CN2C(=O)C3(SCC(=O)N3c3ccccc3)c3ccccc32)cc1Cl (centres undefined)
    17%	-17%
O=C(O)c1cc(-c2ccccc2F)no1
    91%[activator]	7%
Cc1ccc(CNC(=O)CCCn2ccc3cc(S(=O)(=O)N4CCCC4)ccc32)o1
    -2%	51%[activator]
O=C(CSc1ncc(-c2ccc(F)cc2)o1)NCc1ccccc1
    11%	-9%
COC(=O)Cn1c(CN2CCN(c3ccccc3)CC2)nc2c1c(=O)n(C)c(=O)n2C
    ?	?
CC(=O)NCCNC(=O)Cc1c[nH]c2ccccc12
    11%	1%
Cc1oc(-c2ccccc2F)nc1CSCC(=O)NCc1ccccc1
    10%	11%
COCCn1c(=O)[nH]c(=O)c2c3c(cnc21)C(=O)CC(c1ccco1)C3 (centres undefined)
    -3%	-1%
CC(C)NC(=O)NC(=O)CN(C)Cc1cccc(C#N)c1
    -12%	-7%
Cc1cnc2c(S(=O)(=O)NC3CCCCNC3=O)cccc2c1 (centres undefined)
    5%	8%
COCCOc1ccc(C(=O)NC(C)(C)C)cc1Br
    42%[activator]	15%
CCOc1ccc(C2CCCN2C(=O)c2csc(-c3ccsc3)n2)cc1 (centres undefined)
    0%	27%
CC(C)(C)C1CCc2onc(C(=O)N3CCCCC3)c2C1 (centres undefined)
    35%[activator]	14%
Cc1ccc(C)c(NC(=O)C2CCN(c3nn4c(=O)cc(C)nc4s3)CC2)c1
    -15%	-8%
CCOc1cc(CN2CCCCCC2c2ccccc2Cl)ccc1OCC(N)=O (centres undefined)
    -12%	-8%
Cc1ccc(C(=O)NCCc2c[nH]c3ccccc23)cc1
    230%[activator]	15%
COc1ccccc1NC(=O)CSC1=Nc2ccccc2C2=NC(CC(=O)NCc3cccs3)C(=O)N12 (centres undefined)
    -20%	-15%
Cc1[nH]c(=O)[nH]c(=O)c1S(=O)(=O)N1CCN(c2cccc(Cl)c2)CC1
    -8%	-11%
CCOc1ccccc1OCC(=O)Nc1cccc2ncccc12
    8.9µM*	8.9µM*
Cc1ccc(N2CC(C(=O)NCCS(=O)(=O)N3CCN(c4ccccc4F)CC3)CC2=O)cc1 (centres undefined)
    -5%	-4%
COc1ccc2c(C)c(CC(=O)Nc3ccc4c(c3)OCCO4)c(=O)oc2c1
    0%	-6%
COc1ccc(Cl)c2sc(NC(=O)c3ccc(S(=O)(=O)N4CCCC4)cc3)nc12
    -9%	-7%
CC(OC(=O)c1ccc(-n2cnnn2)cc1)C(=O)N1CCc2ccccc21 (centres undefined)
    5%	-7%
COc1ccccc1N1CCN(Cc2nc(-c3cc(OC)c(OC)c(OC)c3)no2)CC1
    12%	2%
COC(=O)C1=C(C)OC(N)=C(C#N)C1c1ccc2c(c1)OCO2 (centres undefined)
    14%	3%
CCc1ccccc1NC(=O)Nc1cn(C)c(=O)c2ccccc12
    4%	-8%
COc1cc([C@H]2[C@@H]3CCCC[C@]3(O)CCN2Cc2ccccc2F)ccc1O
    4%	13%
O=C(Cn1cnc(S(=O)(=O)N2CCOCC2)c1)Nc1ccc(F)cc1F
    -1%	-3%
COc1ccc(-n2c3c(cc(-c4nc(-c5ccc(Cl)cc5)cs4)c2=O)C(=O)CC(C)(C)C3)cc1
    -7%	-9%
O=C(CCNC(=O)C1CCCC1)NC1CCCCCC1
    47%[activator]	-5%
CCOc1cc(-c2ccc(OC(=O)c3ccccc3)c(OC)c2)cc(=O)c2c(C)oc(C)c12
    -12%	-12%
CC(CCN1CCC(C(O)(c2ccccc2)c2ccccc2)CC1)Oc1ccccc1C#N (centres undefined)
    -11%	-1%
COCCn1c(C)cc(C(=O)COC(=O)c2c(C)nn(Cc3ccccc3)c2Cl)c1C
    ?	12%
COCCn1c(SCc2ccc(Cl)cc2Cl)nnc1-c1ccncc1
    16%	23%
O=C(CSc1oc(-c2ccccc2)nc1S(=O)(=O)c1ccc(Cl)cc1)Nc1ccc(F)cc1
    -12%	-2%
CC(=O)c1ccc(OC(=O)C23CC4CC(CC(Cl)(C4)C2)C3)cc1
    6%	5%
O=C(CN1CCN(C(=O)Cc2n[nH]c(=O)c3ccccc23)CC1)NC1CC1
    -6%	-7%
COC(=O)C1=C(N)Oc2n[nH]c(-c3ccccc3)c2C12C(=O)N(C)c1ccccc12 (centres undefined)
    9%	18%
O=C(NCc1coc(-c2cccs2)n1)c1cccc(I)c1
    -5%	14%
c1csc(CNC2C3CC4CC(C3)CC2C4)c1 (centres undefined)
    0%	-3%

Compound profiles, from the list above. Order of screens: StopGo FLuc | StopGo RLuc
`O=C(CCNC(=O)C1CCCC1)NC1CCCCCC1` across the screens: 47%[activator] | -5%
`COCCn1c(C)cc(C(=O)COC(=O)c2c(C)nn(Cc3ccccc3)c2Cl)c1C` across the screens: ? | 12%

(more compounds)
Fields – StopGo FLuc	StopGo RLuc
CCOc1cccc(-c2cc(C(=O)O)c3cc(C)cc(C)c3n2)c1
    63%[activator]	27%
COc1ccc(NC(=O)c2n[nH]c3ccccc23)cc1S(=O)(=O)Nc1ccccc1Cl
    125%[activator]	414%[activator]
CCc1cccc2c(C(=O)COC(=O)c3ccccc3)c[nH]c12
    204%[activator]	23%
COC(=O)c1sccc1S(=O)(=O)N(CC(=O)NCc1ccc(F)cc1)c1ccccc1
    -17%	73%[activator]
NS(=O)(=O)c1cc(C(=O)O)cc(N2CCCC2)c1Oc1ccccc1
    -16%[11.5 µM]	-8%
Cc1nc2c3cccnc3nn2c(C)c1CCC(=O)Nc1cccc(Br)c1
    37%[activator]	35%[activator]
COc1ccc(CSc2nnc(C3CC3)n2C2CC2)cc1F
    3%	0%
CCN1CCN(CCNC(=O)COCc2cc(-c3cccs3)on2)CC1
    -1%	-8%
COc1cc(NS(=O)(=O)c2ccc(N)cc2)nc(OC)n1
    -10%[11.5 µM]	47%[activator]
CCN(CC)c1ccc(-c2nc(-c3ccccc3C)no2)cc1[N+](=O)[O-]
    -2%	-3%
Cc1csc(CNC(=O)N(C)Cc2ccc3c(c2)OCO3)n1
    -3%	-17%
COC(=O)c1c(C)[nH]c(C(=O)CSc2nncn2C(C)C)c1C
    77%[activator]	9%
O=C(NC1CCCC1)c1ccc(CSc2nc3ccncc3n2Cc2ccc(F)cc2)cc1
    3%	-4%
CCc1ccc(S(=O)(=O)c2cn(CC(=O)Nc3ccccc3C)c3ccc(F)cc3c2=O)cc1
    -14%	-1%
Cc1ccc(Cn2c(=O)n(CCc3ccc(Cl)cc3)c(=O)c3ccccc32)cc1
    -14%	-5%
COc1ccc(-c2csc(NC(=O)c3ccc(Cl)c(N4CCCC4=O)c3)n2)cc1F
    77%[activator]	1%
CC1CCCCN1C(=O)c1ccc2c(c1)N(Cc1ccc(Cl)cc1)C(=O)c1ccccc1S2=O (centres undefined)
    12%	24%
COc1ccc(-c2cc3c(=O)n(CC(=O)Nc4cc(F)ccc4F)ccn3n2)cc1OC
    2%	-19%
CCCc1nc2ccccc2c(C(=O)OCC(=O)NC(=O)NC(C)(C)C)c1CC
    ?	0%
Cc1ccc(NC(=O)CN(C)Cc2cc(=O)oc3c(C)c(O)ccc23)cc1
    -19%	39%[activator]
CC(CNC(=O)c1cc2ccccc2[nH]1)c1ccccc1 (centres undefined)
    ?	-16%
O=C(OCc1cccc([N+](=O)[O-])c1)c1ccc(OC(F)(F)F)cc1
    19%	8%
COc1ccc(CN[C@H]2CS(=O)(=O)C[C@@H]2S(=O)(=O)c2cccs2)cc1
    33%[activator]	8%
CCCc1cnc2c(c1SCc1cccc(C)c1)c(=O)n(C)c(=O)n2C
    -15%	-16%
CC(C)NC1CCC(C(C)(C)C)CC1 (centres undefined)
    -8%	-9%
CCc1nc(CC(=O)N(CC#N)C2CC2)cs1
    7%	8%
CCCCc1nn2c(=O)cc(COC(=O)c3cccc(NC(=O)c4cccc(C)c4)c3)nc2s1
    16%	-5%
CCCCN1C(=O)C(=O)N(Cc2cc(=O)oc3cc(C)ccc23)C1=O
    72%[activator]	-10%
Cc1cc2oc(C(=O)Nc3ccc(S(N)(=O)=O)cc3)cc(=O)c2cc1C
    -4%&-16%	-3%&-8%
COc1ccc(NC(=O)C2CCN(S(=O)(=O)c3ccc4c(c3)CCCC(=O)N4)CC2)cc1OC
    -7%	1%
Cc1ccc2c(=O)cc(C(=O)N(Cc3ccccc3)Cc3ccco3)oc2c1C
    8%	62%[activator]
CC(CNC(=O)c1cc(-c2ccccc2)n[nH]1)c1ccccc1 (centres undefined)
    90%[activator]	-10%
COc1ccc(C(=O)Nc2ccc3oc(-c4cccc(I)c4)nc3c2)cc1
    24%	-3%
CCOC(=O)c1nc(Nc2ccccc2OC)c2ccccc2n1
    10%	31%[activator]
COc1ccc(NC(=O)CCc2nc3c(C)nn(-c4ccc(C)cc4)c3n(C)c2=O)cc1
    6%	-12%
CCOC(=O)N1CCN(Cc2nc3cc(NC(=O)c4ccccc4OC)ccc3n2C(C)C)CC1
    43%[activator]	-6%
COc1cc(NC(=O)N2CCC(CN3CCCC3)CC2)cc(OC)c1OC
    -19%	-3%
CC(OC(=O)c1ccc(C(N)=O)cc1)C(=O)NC(C)c1ccccc1 (centres undefined)
    0%	7%
CCOC(=O)N1CCc2c(sc3c2c(=O)n(-c2ccc(CC)cc2)c(=O)n3Cc2cc(C)ccc2C)C1
    ?	?
CC1CCCN(C(=O)Cn2c(=O)n(CC3CCC(C(=O)NC(C)C)CC3)c(=O)c3sccc32)C1 (centres undefined)
    0%	-1%
Cc1ccc(Cl)cc1NC(=O)Cn1c(=O)n(CCCS(=O)(=O)C2CCCCC2)c(=O)c2ccccc21
    -17%	-6%
CC1c2cc3c(cc2CCN1S(=O)(=O)c1ccccc1)OCCCO3 (centres undefined)
    12%	-3%
CCc1ccc(CNC(=O)c2ccc3c(c2)c(C)c(C)n3Cc2ccccc2)cc1
    -16%	4%
CCCn1c(=O)[nH]c(=O)c2c3c(cnc21)C(=O)CC(c1ccc(OC)c(OC)c1)C3 (centres undefined)
    0%	42%[activator]
O=C(O)Cc1ccc(OCCNC[C@H](O)c2ccccc2)cc1
    -14%[11.5 µM]	-3%
Cc1cccc(C(=O)OCc2ncc(-c3ccccc3)o2)c1O
    24%	0%
Cc1ccc(NC(=O)C2CC(=O)n3c(nc4ccccc43)N2)cc1C (centres undefined)
    -1%	9%
CCc1ccc(S(=O)(=O)c2nnn3c2nc(NCCc2ccccc2)c2sccc23)cc1
    ?	66%[activator]
Cc1cn([C@H]2C[C@H](F)[C@@H](CO)O2)c(=O)[nH]c1=O
    -19%	-9%
COc1ccc(NC(=O)C2=C(C)Nc3nc(SCc4ccccc4)nn3C2c2cc(OC)ccc2OC)cc1 (centres undefined)
    -3%	-6%
COc1cc(OC)cc(C(=O)Nc2ccc(Sc3c(C)c(C)nc4ncnn34)cc2)c1
    118%[activator]	-2%
CCCCn1c(CCC(=O)O)nc2c1c(=O)[nH]c(=O)n2CCCC
    23%	7%
CCc1ccc(NC(=O)Cn2nc(Cc3ccncc3)c3ccccc3c2=O)cc1
    -9%	-14%
CSc1ncc(C(=O)Nc2cc(C)cc(C)c2)c(-c2ccccc2)n1
    7%	5%
Cn1c(=O)c2c(c3ccccc31)OC(=O)CC2c1c[nH]c2ccccc12 (centres undefined)
    40%[activator]	35%[activator]
O=C(NC1CCN(Cc2cccc(C(F)(F)F)c2)CC1)C1CCC1
    -11%	-18%
CCc1cc(OC)c(C[C@H](C)N)cc1OC
    0%[27 µM]	-17%[129 µM]
CC(OC(=O)c1cc(=O)c2cc(Cl)ccc2o1)C(=O)NC1CC1 (centres undefined)
    0%	9%
Cc1cc(C(=O)Nc2ccc(-n3c(C)nc4ccccc4c3=O)cc2)ccc1[N+](=O)[O-]
    21%	2%
COc1cccc(C(=O)Nc2ccc(-c3nc4ccc(C)cc4s3)cc2)c1OC
    25%	-6%

3 entries picked at random from those above:
Fields – StopGo FLuc	StopGo RLuc
Cc1cn([C@H]2C[C@H](F)[C@@H](CO)O2)c(=O)[nH]c1=O
    -19%	-9%
Cc1ccc(NC(=O)C2CC(=O)n3c(nc4ccccc43)N2)cc1C (centres undefined)
    -1%	9%
Cc1cccc(C(=O)OCc2ncc(-c3ccccc3)o2)c1O
    24%	0%

More records:
Fields – StopGo FLuc	StopGo RLuc
CCN(CCC#N)Cc1ccc(Br)s1
    12%	14%
COc1ccc(C(CC(=O)O)NC(=O)c2ccccc2Br)cc1 (centres undefined)
    -4%	-4%
CCCNc1c(NC(=O)c2cccc(OC)c2)c(=O)oc2ccccc12
    23%	23%
C/C(=C\c1c[nH]c2ccccc12)[N+](=O)[O-]
    ?	?
Cc1ccc(OCCSc2nc3ccccc3n2CC(=O)NC(C)C)cc1
    1%	15%
Cc1ccc(NC(=O)C(Cc2ccccc2)NS(=O)(=O)c2ccc3c(c2)CCC(=O)N3)cc1 (centres undefined)
    0%	-2%
CCCc1ccc(Oc2cc(-n3ncc(C(C)=O)c3C)nc(C)n2)cc1
    1%	3%
CC(C)c1ccc(CNc2nc(-c3ccco3)nn2S(=O)(=O)c2ccccc2)cc1
    160%&90%[activator]	23%&-2%
O=C(CN1CCCCCC1)Nc1nc(-c2ccccc2)cc(-c2ccccc2)n1
    15%	-3%
COC(=O)c1sccc1S(=O)(=O)N1CCN(c2ccc(C(C)=O)cc2)CC1
    23%	32%[activator]
CCCCNc1nc(-c2ccc(S(C)(=O)=O)cc2)cs1
    49%[activator]	?

A portion of the library; count on the stated rates, not on these rows.
